Bioassay records deposited in PubChem by several laboratories.
A1 inh = inhibitors of the anti-apoptotic protein A1, read as caspase activation; MEF A1-2A-BIM cells, Caspase-Glo 3/7 luminescence, 3 h; percent of clofoctol response, vehicle zero; caspase activation, % (test concentration not listed); hit rate 0.066% among 330,000; AID 2462;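 active means over half of replicate activation scores above 10%, or exactly half above 10 with the replicate mean above 10; inconclusive means replicate mean below 10 yet half the replicates above 10; inactive means over half of replicates below 10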;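 further: wells of about 30 µL received 50 nL stock; many hits fall short of the cut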
B2AR ag = activates human beta-2 adrenergic receptor causing internalization; P07550; response, % (concentration not given with the values); hit rate 0.43% among 340,000; Am2.2-beta2AR cells, FAP receptor internalization, flow cytometry; reference of the scale not given here;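 active means response above a set limit, near 3 SD of response in nonfluorescent compounds, cut at about 42% in these data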;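 further: stock transfer was 100 nL into about 11 µL; a reference agonist was the positive control; negative values mostly stem from fluorescent compounds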
T cruzi inh = T. cruzi replication inhibition | T. cruzi beta-gal in NIH3T3, luminescence, 90 h | inhibition, % (no concentration beside the values) | hit rate 1.4% among 300,000 | AID 1885;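 active means mean inhibition across valid replicates above about 55%, limit read from the data; inconclusive means mean below that limit but half or more replicates reach it; inactive means mean below it, under half of replicates reach it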;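 further: signal also drops with host cell toxicity which is not excluded here; 0% = plate median of DMSO wells and 100% = zero luminescence signal; higher percent means less beta-gal luminescence so fewer parasites; stock transfer was 50 nL into about 50 µL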
LANA-H2A inh = blocks KSHV LANA binding to histone H2A/H2B | AID 2629 | inhibition, % (test concentration not listed) | cell-free LANA-H2A/H2B peptide, fluorescence polarization | hit rate 0.6% among 320,000; in the data active means inhibition mostly above about 10%, no sharp cut-off; inactive means mostly below about 6.7%;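 further: stock transfer was 7.5 nL into about 10 µL; 0% = median of vehicle wells and 100% = median of positive control wells; one replicate is shown; the record names a cut of 25% in any replicate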
Target sequence (Q9QR71 whole entry, looked up): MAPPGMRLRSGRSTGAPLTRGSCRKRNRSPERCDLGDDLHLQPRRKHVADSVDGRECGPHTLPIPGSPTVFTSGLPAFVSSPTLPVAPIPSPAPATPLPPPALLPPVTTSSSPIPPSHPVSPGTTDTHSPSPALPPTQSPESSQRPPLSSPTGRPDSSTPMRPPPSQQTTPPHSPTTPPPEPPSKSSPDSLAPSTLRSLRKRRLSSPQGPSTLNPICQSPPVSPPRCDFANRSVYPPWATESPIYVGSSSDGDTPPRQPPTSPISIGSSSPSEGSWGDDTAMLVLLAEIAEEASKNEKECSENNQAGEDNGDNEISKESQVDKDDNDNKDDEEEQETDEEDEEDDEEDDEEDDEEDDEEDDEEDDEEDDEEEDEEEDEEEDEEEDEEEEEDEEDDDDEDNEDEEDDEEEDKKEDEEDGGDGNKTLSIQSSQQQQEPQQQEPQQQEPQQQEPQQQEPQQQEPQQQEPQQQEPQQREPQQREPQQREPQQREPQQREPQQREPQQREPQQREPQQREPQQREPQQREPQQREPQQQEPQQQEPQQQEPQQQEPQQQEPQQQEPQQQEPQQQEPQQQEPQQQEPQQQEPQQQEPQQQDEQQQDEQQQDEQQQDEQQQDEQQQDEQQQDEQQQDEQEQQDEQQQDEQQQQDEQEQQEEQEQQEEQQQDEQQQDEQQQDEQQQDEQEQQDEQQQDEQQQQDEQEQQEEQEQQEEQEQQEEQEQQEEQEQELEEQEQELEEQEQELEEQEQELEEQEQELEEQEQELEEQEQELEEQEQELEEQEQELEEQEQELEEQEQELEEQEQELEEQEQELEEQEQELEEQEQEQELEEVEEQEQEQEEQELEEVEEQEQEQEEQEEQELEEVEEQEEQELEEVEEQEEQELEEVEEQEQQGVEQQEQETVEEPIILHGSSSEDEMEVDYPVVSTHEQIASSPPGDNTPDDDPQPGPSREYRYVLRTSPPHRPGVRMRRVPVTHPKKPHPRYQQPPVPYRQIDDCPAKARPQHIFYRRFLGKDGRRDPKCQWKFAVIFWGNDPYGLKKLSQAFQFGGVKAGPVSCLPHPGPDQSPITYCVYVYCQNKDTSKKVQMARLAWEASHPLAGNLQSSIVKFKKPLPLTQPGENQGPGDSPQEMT
Ecoli rRNA inh = selective bacterial rRNA inhibition in E. coli; GFP signal change (wild-type ribosome), % (no concentration beside the values); E. coli WT GFP vs humanized-ribosome RFP mutants, fluorescence, 24 h; hits give low values; DMSO median 0, no signal -100; hit rate 1.6% among 350,000;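 active means significant combined selectivity score with lowered wild-type GFP, culture density cut under 30%, mutant RFP and density less affected; inactive means any of these conditions unmet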; further: one replicate is shown; some compounds called inactive have numbers as strong as hits
ALR inh = blocks human ALR sulfhydryl oxidase activity | AID 485317 | inhibition, % (no concentration beside the values) | P55789 | purified ALR, DTT oxidation, H2O2 HRP-luminol luminescence | hit rate 3.8% among 290,000;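 active means mean and each replicate at 75% or more; inconclusive means only one of the two met; inactive means neither met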;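 further: stock transfer was 7.5 nL into about 7.5 µL; 0% = neutral wells and 100% = wells with inactivated enzyme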
Beta cell apopt = blocks beta cell apoptosis | protection from apoptosis, % (test concentration not listed) | INS-1E cytokine-induced death, ATP luminescence, 48 h; percent of positive-control rescue, neutral wells zero | hit rate 0.8% among 300,000 | AID 435005;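 active means all replicates at 75% or more, or half of them and the mean; inconclusive means half reach 75% but not the mean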;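 further: 0% = cytokine-treated negative control wells and 100% = positive control rescue; higher means more ATP so stronger rescue from cytokine killing; wells of about 40 µL received 100 nL stock; the first replicate is given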
Calb FLC = C. albicans growth modulation with fluconazole; hit rate 0.57% among 300,000; C. albicans CaCi-2 (fluconazole-resistant clinical isolate) + fluconazole, Alamar Blue growth, 48 h; AID 1979; growth inhibition, % (test concentration not listed);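 active means most replicates above 75%; inconclusive means exactly half above 75%; inactive means most below 75%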;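 further: all wells also contain fluconazole at 8 µg/ml as a sub-toxic cotreatment; 0% = median of DMSO wells and 100% = median of geldanamycin control wells; wells of about 8 µL received 7.5 nL stock; the first replicate is given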
Ecoli rRNA inh OD600 = further read-out of Ecoli rRNA inh, marked with its call; OD600 change, %; measured here: OD600 growth;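 optical density of the mix in the first replicate; 0 = DMSO median and -100 = no signal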
Ecoli rRNA inh RFP = second read-out of Ecoli rRNA inh, no call of its own (marks repeat the call); RFP signal change, %; measured here: RFP humanized mutant strains;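 first replicate; 0 = DMSO median and -100 = no signal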
An asterisk follows results filed as active; ? = inconclusive; . = not tested or not shown. Only part of the results is shown (hit frequency here may not be typical).

canonical_smiles	Calb FLC	Ecoli rRNA inh RFP	A1 inh	B2AR ag	Ecoli rRNA inh	T cruzi inh	Beta cell apopt	Ecoli rRNA inh OD600	LANA-H2A inh	ALR inh
COc1ccc(C(=O)C[n+]2cccc(Br)c2)cc1	-25	-0.6	-0.8	-2	16	-8	-6	6	0.6	34
COc1ccccc1Nc1ncnc2c1oc1ccccc12	55	.	-0.9	-4	.	14	10	.	-1.4	-3
O=C(Nc1ccc(N2CCN(C(=O)c3ccco3)CC2)cc1)c1cccc(F)c1	24	.	0.2	0	.	16	0	.	-1.0	1
NC(=O)c1ccccc1NC(=O)C1CCCO1 (configuration not stated)	-1	-0.7	1.3	2	12	-8	.	-10	-6.4	2
CCOC(=O)C(C)n1nc(C)c2sc3ccccc3c2c1=O (configuration not stated)	-3	.	-0.3	1	.	6	4	.	-4.8	-5
COc1cc(C2c3cc4c(cc3C(OC3OC5COC(c6cccs6)OC5C(O)C3O)C3COC(=O)C23)OCO4)cc(OC)c1O (configuration not stated)	.	.	1.9	4	.	33	94*	.	4.2	-9
CCOc1nc(-c2ccccc2)c2cc(C)ccc2n1	-12	-2.7	1.4	-8	-4	13	-1	-17	-4.7	3
COCCCNC(=O)Nc1ccc2c(c1)N(C)C(=O)CS2	-18	.	-1.1	-1	.	-3	6	.	1.0	1
O=C(c1ccc(Cl)cc1)c1cc(-c2ccccn2)c(N2CCOCC2)s1	1	.	0.0	-19	.	4	.	.	-1.0	-2
O=C(Cn1cnc2ccccc2c1=O)Nc1ccc2c(c1)OCO2	-8	-8.6	1.3	-8	-8	-3	.	-13	1.4	-1
FC(F)(F)c1cc(-c2cccs2)nc2cc(-c3ccccc3)nn12	-9	-1.7	-1.1	-15	10	2	-4	14	-6.0	-2
Cc1ccc(C(=O)N/C(=C\c2cccs2)C(=O)NCc2cccnc2)cc1	13	.	0.5	2	.	-12	3	.	2.5	41
Cc1nnc(NC(=O)CSc2nnc(CC(=O)Nc3ccccc3Cl)n2C)s1	-1	-5.1	-0.7	8	4	11	-6	14	0.3	0
CC(C)NC(=O)c1ccc(Cl)cc1Cl	1	3.1	0.2	-5	8	-3	1	18	1.1	-7
CCOc1ccc(-c2ccc(NS(=O)(=O)c3cc([N+](=O)[O-])c(C)c([N+](=O)[O-])c3)cc2)nn1	0	1.9	1.6	20	-12	8	.	-5	-4.6	-7
Cc1sc2nc(CSCC(=O)Nc3ccc(C(F)(F)F)cc3)[nH]c(=O)c2c1C	.	9.1	0.6	3	-3	.	-1	-32	-9.2	.
CCOc1ccccc1C(=O)NN1C(=O)CCC1=O	-4	.	1.3	-13	.	-1	-3	.	3.9	-4
O=C(Nc1ccc(Cl)cn1)C1CCCN(c2ncnc3c2nc2n3CCCCC2)C1 (configuration not stated)	1	-1.1	0.1	17	-9	6	-7	-10	1.2	-4
CCOC(=O)[C@H]1[C@H]2COc3cc(OC)ccc3[C@@H]2N2C(=O)CN(Cc3ccc(Cl)cc3)C(=O)[C@@]12C	.	17	0.3	-6	0	.	-1	-6	3.5	-2
CN(CC(=O)Nc1ccccc1Br)C(=O)C(Cc1ccccc1)NC(=O)c1ccccc1 (configuration not stated)	-2	-1.8	0.0	4	-11	-2	-1	-6	-1.8	-3
CCCNC(=O)c1n[nH]c(=O)c2ccccc12	-1	.	1.3	3	.	6	-5	.	2.3	-15
CC(=O)c1cccc(NC(=O)Cn2nc(-c3ccc(Cl)cc3)ccc2=O)c1	1	1.9	-0.9	-3	15	8	-6	15	5.7	-4
Cc1ccccc1-n1c(N)c(C(=O)Nc2ccc(F)cc2)sc1=S	-6	1.9	-0.1	7	5	10	0	2	7.5	-8
COC(=O)c1[nH]c2ccc(Cl)cc2c1NC(=O)CN1CCc2cc(OC)c(OC)cc2C1	6	.	0.5	8	.	21	4	.	9.5	1
COc1ccc(CCN(C)C2CCCN(C(=O)CCC(F)(F)F)C2)cc1OC (configuration not stated)	-7	0.5	0.1	-7	7	2	.	1	-3.4	.
O=S(=O)(N1CCCCC1)N1CCN(c2cc(Cl)ccc2Cl)CC1	?	-1.8	-0.1	2	-24	26	4	-22	2.7	-5
COc1cccc(NC(=O)CSc2nnc3c(n2)[nH]c2ccc(C)cc23)c1	18	-0.1	0.0	4	5	5	4	8	-2.4	-2
O=c1cc(-c2ccccc2)nc(Cc2c(Cl)cccc2Cl)[nH]1	12	-1.4	-0.2	5	10	7	.	10	-2.3	.
CCCCc1ccc(/C=C2\C(=O)c3ccccc3C(O)=C2C(=O)OCC)cc1	63	.	-1.0	.	.	51	-8	.	-4.5	-11
COC(=O)Nc1nnc(-c2ccncc2)s1	13	.	-5.5	2	.	0	3	.	4.0	6
Cc1cc(NCCCn2ccnc2)n2ncc(-c3ccc(Cl)cc3)c2n1	71	.	-0.5	2	.	48	15	.	9.4	15
Cc1cccc(NC(=O)CSc2nnc(NC(=O)CN3CCOCC3)s2)c1	-2	.	0.8	3	.	-6	-1	.	8.5	-30
CCOC(=O)Cc1csc(NC(=O)CC(C)(C)CC(=O)O)n1	-3	5.1	1.0	3	15	2	4	4	1.2	-5
Cc1ccc(/C=C/C(=O)Nc2cccc(S(=O)(=O)N3CCOCC3)c2)o1	1	-2.0	-0.1	11	9	-11	-4	21	-2.5	10
C=CCOc1nc2c(c(=O)n(Cc3ccc(Cl)c(Cl)c3)c(=O)n2C)n1C	-20	.	2.0	3	.	6	10	.	6.4	0
O=C(Nc1cccc(-c2nc3cccnc3s2)c1)c1ccco1	49	-0.6	-0.3	33	-31	12	-7	-34	3.4	.
Cc1ccc(C)c(NC(=S)N2CCN(S(C)(=O)=O)CC2)c1	-11	-0.1	-1.2	-3	7	.	-1	8	6.8	-10
CCOc1ccc(CNC(=O)CCCn2ccc3cc(S(=O)(=O)N4CCCC4)ccc32)cc1	-7	7.7	-0.5	1	-6	39	5	-6	-1.3	-9
CC(SCC(=O)Nc1ccccc1Br)c1nc2ccccc2c(=O)[nH]1 (configuration not stated)	.	6.0	0.0	-1	7	.	-3	-4	-0.6	-3
CCOC(=O)[C@@H]1[C@H]2COc3cc(OC)ccc3[C@H]2N2C(=O)N(c3cccc(F)c3)C(=O)[C@@]12C	.	2.9	1.1	-5	6	.	-1	11	3.2	-1
CSc1nc(C)cc(C)c1C#N	-2	.	0.1	5	.	-21	-5	.	-4.8	.
CC(=O)Nc1ccc2c(c1)nc1n2CCN(C(C)c2ccccc2)C1 (configuration not stated)	6	-6.4	-0.2	6	-2	10	0	-4	-7.8	-102
CCOc1ccc(NC(=O)COc2ccc(-n3cnnn3)cc2)cc1	.	-0.8	0.2	-8	5	.	-3	11	-0.1	-1
CCC(C)NC(=O)Cn1nc([N+](=O)[O-])c(Cl)c1C (configuration not stated)	.	.	0.2	-1	.	.	-1	.	-7.1	-29
CCOC(=O)CN1C(=O)N[C@@H](CCc2ccccc2)[C@H](C(=O)OC)[C@H]1C	-9	-1.3	1.5	3	2	-1	-4	8	-0.4	-8
Cc1nn(Cc2ccccc2)c2c1C(c1cccnc1)C(C#N)=C(N)O2 (configuration not stated)	-5	.	1.0	0	.	-6	-2	.	0.6	95*
CCN(CC)S(=O)(=O)c1ccc(N2CCOCC2)c(NC(=O)C(C)(C)C)c1	1	-4.0	0.3	-4	-7	11	-7	-12	-0.3	1
c1ccc(C2CCCN(Cc3nc(CC4CC4)no3)CC2)cc1 (configuration not stated)	1	2.4	-0.1	11	-17	17	-10	-24	2.1	1
CN1Cc2sc(NC(=S)NC(=O)c3ccccc3)c(C#N)c2CC1(C)C	-8	6.5	-0.2	-49	11	19	6	-7	-7.5	18
O=C(O/N=C1/CCCc2occc21)c1ccccc1	-8	.	-3.7	-2	.	1	-6	.	-7.3	0

Next section, overlapping the part above by 5 compounds.
canonical_smiles	Calb FLC	Ecoli rRNA inh RFP	A1 inh	B2AR ag	Ecoli rRNA inh	T cruzi inh	Beta cell apopt	Ecoli rRNA inh OD600	LANA-H2A inh	ALR inh
Cc1nn(Cc2ccccc2)c2c1C(c1cccnc1)C(C#N)=C(N)O2 (configuration not stated)	-5	.	1.0	0	.	-6	-2	.	0.6	95*
CCN(CC)S(=O)(=O)c1ccc(N2CCOCC2)c(NC(=O)C(C)(C)C)c1	1	-4.0	0.3	-4	-7	11	-7	-12	-0.3	1
c1ccc(C2CCCN(Cc3nc(CC4CC4)no3)CC2)cc1 (configuration not stated)	1	2.4	-0.1	11	-17	17	-10	-24	2.1	1
CN1Cc2sc(NC(=S)NC(=O)c3ccccc3)c(C#N)c2CC1(C)C	-8	6.5	-0.2	-49	11	19	6	-7	-7.5	18
O=C(O/N=C1/CCCc2occc21)c1ccccc1	-8	.	-3.7	-2	.	1	-6	.	-7.3	0
COc1ccc(NCc2nc3ccccc3n2CCOc2ccccc2)cc1	-19	.	0.0	10	.	69*	-13	.	-0.3	-10
COc1ccc(-c2nc3cccc(C)n3c2NCc2ccco2)cc1OC	-4	.	0.4	-2	.	4	-9	.	1.5	.
N#CC1=C(N)C(C#N)(C#N)[C@H](c2ccsc2)[C@H]2COCC=C12	6	.	0.2	8	.	7	-3	.	5.2	-10
Cc1cccc(C)c1OCC(=O)NCC1CCCO1 (configuration not stated)	11	-3.4	0.8	-1	5	-13	-3	15	0.8	3
CC1(C)C2C(Cl)(Cl)C2(C)c2ccccc2N1C=O (configuration not stated)	4	0.1	-0.2	7	2	-5	-10	7	-0.5	-7
COc1cc(/C=N\NC(=O)OC(C)(C)C)ccc1OC(=O)c1ccco1	14	-1.2	-0.3	-3	1	5	.	-9	4.3	20

Given field by field: two of the compounds above
> COc1ccc(-c2nc3cccc(C)n3c2NCc2ccco2)cc1OC
  Calb FLC: -4
  Ecoli rRNA inh RFP: .
  A1 inh: 0.4
  B2AR ag: -2
  Ecoli rRNA inh: .
  T cruzi inh: 4
  Beta cell apopt: -9
  Ecoli rRNA inh OD600: .
  LANA-H2A inh: 1.5
  ALR inh: .
> N#CC1=C(N)C(C#N)(C#N)[C@H](c2ccsc2)[C@H]2COCC=C12
  Calb FLC: 6
  Ecoli rRNA inh RFP: .
  A1 inh: 0.2
  B2AR ag: 8
  Ecoli rRNA inh: .
  T cruzi inh: 7
  Beta cell apopt: -3
  Ecoli rRNA inh OD600: .
  LANA-H2A inh: 5.2
  ALR inh: -10
